ClpP mod: qHTS Assay for Activators of ClpP | ATP-dependent Clp protease proteolytic subunit (Bacillus subtilis (strain 168)), P80244 | purified B. subtilis ClpP, FRET peptide cleavage, 20 min | Potency, µM (titrated, usually from 57.5 µM), inactives show top-dose activity change, negative = active | hit rate 1.9% among 340,000; active = well fitted falling curve with a large enough effect; inconclusive = small, poorly fitted or top-dose-only effect; inactive = no such curve, though single readings can be large or run the other way; note: potency is the fitted concentration of half-maximal effect; the source files actives as falling curves though it sought activators and does not explain the sign; nearly all actives have a fitted effect of over 65% in size; many hits overshoot -100%
Target sequence (P80244 whole entry, looked up): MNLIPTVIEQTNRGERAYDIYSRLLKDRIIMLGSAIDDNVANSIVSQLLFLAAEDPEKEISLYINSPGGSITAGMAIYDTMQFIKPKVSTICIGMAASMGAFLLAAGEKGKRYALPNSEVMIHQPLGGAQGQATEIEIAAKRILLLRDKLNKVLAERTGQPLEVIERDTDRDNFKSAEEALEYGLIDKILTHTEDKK
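ClpP 10 microg/mL final, pH 8 Tris/KCl buffer with BSA, glycerol, Tween-20; compound pinned in; FRET-FV substrate; RT 20 min; Ex320/Em430; ΔFRET vs ADEP 5.8 microM, DMSO, no enzyme.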
CtBP-E1A inh: inhibitors of CtBP/E1A interaction | activity change, % (no concentration beside the values) | AlphaScreen GST-E1A/His-CtBP binding, 1536-well; stronger effect = lower value; control for the full effect not named in the record | hit rate 0.49% among 340,000 | AID 651724; in the data active means activity change below about -65%; inconclusive means about -30% to -65%; inactive means above about -30%; note: % is set by controls: 0 for no effect and ±100 for the full control effect; compound concentration not given in the record
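Homogeneous bead-based format: GST-tagged E1A captured on glutathione donor beads, His-tagged CtBP on nickel acceptor beads; compounds precede bead addition by 2 h at 37 °C.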
* = called active by the depositor; ? = inconclusive. Not all compounds are listed, so the mix of outcomes need not match the whole.

Value order: ClpP mod, CtBP-E1A inh
> COc1cccc(C(O)c2ncc(-c3ccc4ccccc4c3)[nH]2)c1 (stereo unspecified)
→ 5.1%, -17.0
> CCOC(=O)[C@]12CCC=C1N(Cc1cccc3ccccc13)C(=O)[C@H](CC(=O)N1CCCC1)C2
→ -1.6%, -4.1
> CCCNC(=O)C1(C)CCN(C(=O)c2cc(F)cc(F)c2)C1 (stereo unspecified)
→ 2.4%, -3.3
> COc1ccc(CC(N)c2csc(NC(=O)Nc3ccccc3Cc3ccccc3)n2)cc1 (stereo unspecified)
→ -4.3%, -29.0
> CC(C)CCN1C(=O)c2ccccc2C1c1nnnn1-c1ccc2c(c1)OCCO2 (stereo unspecified)
→ 0.7%, 3.4
> Cn1c(=O)c2cc(NC(=S)NC3CC3)ccc2n1C/C=C/c1ccccc1
→ 4.1%, 0.2
> CCC(=O)N1CCCC(C)(C(=O)Nc2ccc(OC)c(F)c2)C1 (stereo unspecified)
→ 1.4%, 0.4
> OC(Cc1ccccc1)c1ncc(-c2ccc(Cl)cc2)[nH]1 (stereo unspecified)
→ -4.0%, -9.0
> COc1cc(Cl)ccc1OC1(C)CCN(Cc2c(F)cccc2F)C1 (stereo unspecified)
→ -1.4%, 3.4
> COc1ccccc1CCn1cnc(-c2ccc(OC)c(OC)c2)c1C(C)C
→ -23.1%, ?
> CSc1ccc(-c2ccc3c(c2)c(Sc2ccccc2)c(-c2ccccc2)n3C)cc1
→ ?, -11.0
> COc1cccc(NC(=O)c2ccc3nc(C)c(N(C)Cc4ccc(NC(C)=O)cc4)n3c2)c1
→ -7.4%, -5.6
> Nc1[nH]c(C(=O)c2ccccc2)c(-c2ccncc2)c1C(=O)NCCc1c[nH]c2ccccc12
→ -0.5%, 6.6
> Cc1cc(C)cc(C(O)c2ncc(-c3ccccc3F)[nH]2)c1 (stereo unspecified)
→ -3.4%, 1.0
> Oc1ccc(C[C@H]2CN([C@@H](Cc3ccccc3)CN3CCCC3CN3C(=S)NC[C@@H]3Cc3ccccc3)C(=S)N2CC2CCCCC2)cc1 (stereo partly specified)
→ -0.5%, -12.2
> CC1=C(C(=O)N2CCOCC2)CC(CC(=O)NCc2cccc3ccccc23)C(=O)N1Cc1ccc(C(C)(C)C)cc1 (stereo unspecified)
→ 1.7%, -2.7
> CCOC1=C2CN(S(=O)(=O)c3ccc(C)cc3)CC[C@@H]2N(S(=O)(=O)c2ccc(C)cc2)[C@H](c2ccccc2)C1
→ -0.8%, 6.3
> CCCCNC(=O)C1(C)CCCCN1C(=O)c1cc(C#N)cs1 (stereo unspecified)
→ 1.4%, 0.8
> COCCCNc1nccn2ccnc12
→ -3.8%, -0.4
> COc1cccc(C(O)c2nc(-c3ccc(OC)nc3)cs2)c1 (stereo unspecified)
→ -0.8%, 0.4
> CCOC(=O)C1=C[C@@H](C(C)(C)C)N(S(=O)(=O)c2ccc([N+](=O)[O-])cc2)[C@H]1c1ccccc1
→ 1.1%, -27.5
> O=C(/C=C/[C@H]1O[C@@H](n2ccc(=O)[nH]c2=O)[C@H](O)[C@@H]1O)NCCN1CCCC1
→ 0.1%, 8.3
> CC1(C(=O)NCc2ccc3c(c2)OCO3)CCN1C(=O)Cc1ccc(Cl)cc1Cl (stereo unspecified)
→ -0.8%, 1.1
> CC1(C(=O)Nc2ccc3c(c2)OCCO3)CN(S(C)(=O)=O)CC(=O)N1C1CCCCCC1 (stereo unspecified)
→ 3.6%, 0.5
> O=C(c1cc(C2CCCCN2S(=O)(=O)c2ccc(F)cc2F)on1)N1CCOCC1 (stereo unspecified)
→ -0.2%, 4.2
> CCOC(=O)C1=CCN(S(=O)(=O)c2ccc(C)cc2)C1c1ccc(C(C)C)cc1 (stereo unspecified)
→ 2.0%, 8.1
> O=C(NCc1ccco1)Nc1nnc([C@H]2C[C@H](O)[C@@H](CO)O2)s1
→ -4.3%, 1.7
> CC1(C(=O)Nc2ccc3c(c2)OCCO3)CCN1C(=O)Cc1ccc(-c2ccccc2)cc1 (stereo unspecified)
→ -0.9%, -7.8
> COC(=O)[C@@]1(Cc2ccc(F)cc2)[C@H]2c3cc(C(=O)N(C)C)n(Cc4cc(F)cc5c4OCOC5)c3C[C@H]2CN1C(=O)c1ccccc1
→ -5.5%, -10.0
> O=C1CCCCC(=O)[C@H](O)C[C@H](COCc2ccccc2)O1
→ 0.7%, -0.4

Taken from above:
For ClpP mod, CCOC(=O)C1=C[C@@H](C(C)(C)C)N(S(=O)(=O)c2ccc([N+](=O)[O-])cc2)[C@H]1c1ccccc1 is listed with 1.1%
For CtBP-E1A inh, COc1cc(Cl)ccc1OC1(C)CCN(Cc2c(F)cccc2F)C1 (stereo unspecified) is listed with 3.4
For ClpP mod, CCOC(=O)[C@]12CCC=C1N(Cc1cccc3ccccc13)C(=O)[C@H](CC(=O)N1CCCC1)C2 is listed with -1.6%
For ClpP mod, OC(Cc1ccccc1)c1ncc(-c2ccc(Cl)cc2)[nH]1 (stereo unspecified) is listed with -4.0%

Following part
Value order: ClpP mod, CtBP-E1A inh
> O=C(c1ccccc1)n1c2ccccc2c(=O)n1-c1ccccc1CCl
→ 5.9%, -16.5
> CC(C)NC(=O)C1(C)CCCN1Cc1ccccc1 (stereo unspecified)
→ -2.2%, 0.6
> CC1=C(C(=O)N(C)C)CC(CC(=O)NCc2cccc3ccccc23)C(=O)N1Cc1ccc(F)cc1 (stereo unspecified)
→ -0.9%, 3.7
> O=C(NCc1ccccc1)C(C1CC1)n1c(=O)c(-c2ccco2)nc2ccccc21 (stereo unspecified)
→ 4.8%, 1.4
> O=C(Nc1nnc([C@@H]2C[C@H](O)[C@@H](CO)O2)s1)c1cccs1
→ -0.1%, 9.8
> CCCS(=O)(=O)NC(=O)C1(C)CCCN(C(=O)COc2ccc(Cl)cc2Cl)C1 (stereo unspecified)
→ -1.7%, 2.6
> CCC(=O)N1CCC1(C)C(=O)NCc1ccccc1SC (stereo unspecified)
→ -5.5%, -20.8
> COc1cc(NC(=O)Nc2nc(C(N)C(C)C)cs2)cc(OC)c1OC (stereo unspecified)
→ -1.8%, -12.1
> CCc1nc2ccc(C(=O)N3CCN(C(=O)c4ccco4)CC3)cn2c1N(C)Cc1cccs1
→ -2.0%, 1.2
> Cc1ccc(F)cc1C(=O)N1CCCCC1c1cc(C(=O)Nc2ccccc2)no1 (stereo unspecified)
→ 1.4%, -5.3
> Cc1ccsc1-c1cc2nc(NCCOc3ccccc3Cl)n(C)c(=O)c2s1
→ ?, 9.3
> CC1(C(=O)NS(=O)(=O)c2ccc(F)cc2F)CCN1C(=O)CCc1ccc(Cl)cc1Cl (stereo unspecified)
→ 0.7%, 1.1
> COc1ccc(OC)c(CN2C(=O)c3ccccc3C2c2nnnn2-c2ccc3c(c2)OCCO3)c1 (stereo unspecified)
→ -5.4%, 0.0
> COc1cccc(C=NN(C)c2c([N+](=O)[O-])cc(C(F)(F)F)cc2[N+](=O)[O-])c1O
→ -4.7%, ?
> OC(c1ccc(F)cc1)c1nc(-c2cnc3ccccc3c2)cs1 (stereo unspecified)
→ -20.0%, -7.9
> CC(=O)Nc1cc(-c2ccccc2)cn2c(-c3cccc(C(C)=O)c3)cnc12
→ -23.1%, -11.7
> COc1ccccc1N1CCN(c2ncnc3n[nH]c(Br)c23)CC1
→ 1.1%, 19.1
> CN(C)c1ccc(-c2ccnc3c2CC(C)(C(=O)Nc2ccccc2)O3)cc1 (stereo unspecified)
→ 3.8%, -8.0
> CC1Sc2ccc(C#N)cc2N(Cc2cccc(C(F)(F)F)c2)C1=O (stereo unspecified)
→ -1.2%, 22.8
> CCOc1cc(OCC)cc(C(=O)N2CCC[C@@H]2C(=O)N2CCC[C@@H]2C(=O)NCc2ccccc2Cl)c1
→ 1.5%, 5.0
> Cc1ccc(Cc2c(-c3cccc(Br)c3)nc3c(Cl)cc(C(F)(F)F)cn23)cc1
→ -8.6%, 0.3
> CN(C)CCN1CCN(c2cc(-c3cccc(Cl)c3)nc3ccnn23)CC1
→ 4.6%, 10.0
> CCOc1ccc(Cl)cc1-c1cc(C(=O)NCC2CCCCC2)[nH]n1
→ -8.6%, -2.1
> O=C(C[n+]1ccc(C(=O)NCc2ccccc2)cc1)c1ccc(F)cc1
→ -12.9%, -2.2
> C[C@H](NC(=O)CC[C@H]1O[C@@H](n2ccc(=O)[nH]c2=O)[C@H](O)[C@@H]1O)C(=O)O
→ -3.0%, -0.5
> CC1=C(C(=O)N(C)C)CC(CC(=O)NCC2CCCCC2)C(=O)N1Cc1ccc(F)cc1 (stereo unspecified)
→ -0.3%, 3.7
> O=C1NC[C@H](CCCCN2C[C@H](Cc3ccc(O)cc3)N(CC3CCCCC3)C(=O)C2=O)N(CCC2CCCCC2)C1=O
→ 0.0%, 0.4
> CC(C)n1nnnc1C1c2ccccc2C(=O)N1CCc1ccccc1F (stereo unspecified)
→ -0.7%, 5.0
> COc1cccc(Cn2c(Cn3c(-c4cnccn4)nc4ccccc43)nc3ccccc32)c1
→ -10.7%, -6.0
> CCC1OC(C(C)C)Cc2[nH][nH]c(=O)c21 (stereo unspecified)
→ -0.5%, 0.9

Some of these compounds in order of length of the SMILES, rising:
Value order: ClpP mod, CtBP-E1A inh
> CCOc1ccc(Cl)cc1-c1cc(C(=O)NCC2CCCCC2)[nH]n1
→ -8.6%, -2.1
> CN(C)CCN1CCN(c2cc(-c3cccc(Cl)c3)nc3ccnn23)CC1
→ 4.6%, 10.0
> COc1cccc(C=NN(C)c2c([N+](=O)[O-])cc(C(F)(F)F)cc2[N+](=O)[O-])c1O
→ -4.7%, ?

Additional structures follow.
Value order: ClpP mod, CtBP-E1A inh
> CCOC(=O)[C@]12CCC=C1N(Cc1ccccc1)C(=O)[C@H](CC(=O)NCC13CC4CC(CC(C4)C1)C3)C2
→ -4.1%, -2.2
> CCc1nc2ccc(C(=O)Nc3cccc(OCC(=O)N(C)C)c3)cn2c1N(CCN(C)C)CC1CC1
→ -0.1%, 5.6
> COc1ccccc1C(C(=O)c1ccccc1)c1ccc(O)cc1 (stereo unspecified)
→ -0.3%, -10.0
> COc1ccc(NC(=O)C2c3ccccc3OCC(=O)N2CCc2ccccc2)cc1 (stereo unspecified)
→ -0.9%, -8.9
> CCNC(=O)C1CCCN(C(=O)c2ccc(N(C)C)cc2)CC1 (stereo unspecified)
→ -0.7%, 3.3
> O=C(NC(c1ccc(-c2ccccc2)cc1)c1cnccn1)C1CCN(Cc2ccc(Cl)c(Cl)c2)CC1 (stereo unspecified)
→ -2.8%, -0.6
> O=C1NC[C@@H](CCCCN2C[C@H](Cc3ccccc3)N(Cc3ccccc3)C(=O)C2=O)N(CCc2ccccc2)C1=O
→ 0.4%, -2.1
> CCCCn1nnnc1C(c1ccccc1)N1CCN(c2ccc(C)cc2)CC1 (stereo unspecified)
→ 0.8%, -16.7
> CCOC(=O)[C@]12CCCC=C1N(Cc1ccco1)C(=O)[C@H](CC(=O)N1CCN(C(=O)c3ccco3)CC1)C2
→ -2.6%, -4.1
> COc1ccc(-c2cc3nc(NCc4ccc(C)cc4C)n(C)c(=O)c3s2)cc1OC
→ ?, 3.8
> Fc1cccc(Cc2c(-c3cccc(Cl)c3)nc3c(Cl)cc(C(F)(F)F)cn23)c1
→ -12.0%, 13.2
> O=C(C(=O)N1CCC(Cc2ccccc2)CC1)c1cccs1
→ 0.2%, 0.0
> NC(CO)c1csc(Nc2ccc(C(=O)c3ccccc3)cc2)n1 (stereo unspecified)
→ 0.3%, -6.8
> Cc1cc(C)n2c(Nc3c(C)cccc3C)c(CC(C)C)nc2n1
→ -3.7%, 1.0
> OC(c1ccc(Cl)cc1)c1ncc(-c2cccc(C(F)(F)F)c2)[nH]1 (stereo unspecified)
→ 1.0%, 8.4
> COc1ccc(NC(=O)c2cc(-c3cc(F)ccc3OC)n[nH]2)c(C)c1
→ -5.5%, -16.9
> CCCN(C)C1CN(Cc2cn(Cc3ccccc3)nn2)S(=O)(=O)C1 (stereo unspecified)
→ 2.7%, 3.8
> CC(C)C1C(=O)N(Cc2cn(CCC3OCCO3)nn2)CCS(=O)(=O)N1Cc1ccc(-c2ccccc2C(F)(F)F)cc1 (stereo unspecified)
→ 1.6%, -7.3
> CCCCOCCCNC(=O)C[C@@H]1C[C@@]2(C(=O)OC)CC(C)(C)CC=C2N(Cc2ccccc2)C1=O
→ 1.8%, 0.0
> CCC(CC)C(C(=O)NC1CCCC1)N1CCN(c2cc(C)nc3ccccc23)CC1 (stereo unspecified)
→ -2.2%, 3.4
> CC(=O)c1cccc(NC(=O)c2cccc3c(-c4cccc(C(N)=O)c4)coc23)c1
→ 69.7%, ?
> CCNC(=O)c1cc2c(c(-c3cccc(-c4cccnc4)c3)n1)[C@H](CCO)N(S(C)(=O)=O)C2
→ -0.8%, 3.1
> C#CCNC(=O)C[C@@H]1C[C@@]2(C(=O)OC)CCCCC=C2N(Cc2ccccc2)C1=O
→ 0.9%, 5.6
> COc1ccc(C2C=CC(=O)CC2)c(OC)c1 (stereo unspecified)
→ 2.6%, 0.7
> CCOc1ccc(-c2cc(C(=O)NCc3cc(OC)cc(OC)c3)[nH]n2)c(C)c1
→ -1.5%, -10.4
> CC(C(=O)NC1CCCC1)n1c(-c2ccncc2)nc2ccccc21 (stereo unspecified)
→ -8.1%, 1.5
> COc1ccc(C(=O)N2CCCCC2c2cc(C(=O)NCc3ccc(F)cc3)no2)cc1 (stereo unspecified)
→ -3.2%, -8.9
> CC(=O)Nc1ccc(-c2ccnc3c2CC(C)(C(=O)NCC2CC2)O3)cc1 (stereo unspecified)
→ 4.7%, 3.8
